Screening data deposited in PubChem BioAssay by National Center for Advancing Translational Sciences (NCATS).
LASV entry inh: inhibitors of Lassa virus binding or cell entry; Lassa virus pseudotype entry inhibition, cell reporter; control for the full effect not named in the record; Potency, µM (series often up to 37.9 µM), for inactives: at the highest dose activity change, negative = inhibition, most hits filed as inhibitors; hit rate 1.2% among 300,000; AID 540256; active means well fitted inhibition curve with a large enough effect; inconclusive means small, poorly fitted or top-dose-only effect, or effect the other way; inactive means flat fitted curve, though single readings scatter; tested in HEK293 cells; note: % is set by controls: 0 for no effect and ±100 for the full control effect; nearly all actives have a fitted effect of over 50% in size; luciferase read-out
Marburg entry inh: blocks Marburg virus binding to or entry into cells; hit rate 1.8% among 300,000; Potency, µM (highest dose often 37.8 µM), for inactives: at the top dose activity change, negative = inhibition, most hits filed as inhibitors; AID 540276; Marburg virus pseudotyped entry inhibition, cell reporter; control for the full effect not named in the record; about a third of the inactives were read at about 46 µM; active = well fitted inhibition curve with a large enough effect; inconclusive = small, poorly fitted or top-dose-only effect, or effect the other way; inactive = flat fitted curve, though single readings scatter; tested in HEK293 cells; about a fifth of its hits are not listed in these tables; note: % is set by controls: 0 for no effect and ±100 for the full control effect; luciferase read-out
SARS PLP yeast: blocks SARS-CoV papain-like protease in a yeast assay | hit rate 0.19% among 330,000 | AID 485353 | Potency, µM (series often up to 32.9 µM), for the others: at the top dose activity, positive = growth rescue | S. cerevisiae expressing SARS-CoV PLpro, growth rescue; control for the full effect not named in the record; active means well fitted rising curve with a large enough effect; inconclusive means small, poorly fitted or top-dose-only effect; inactive means no such curve, though single readings can be large or run the other way; note: 0% is about no effect; nearly all actives have a fitted effect of over 55% in size; growth read by luminescence after 48 h
Cruzain inh noDet: blocks cruzain activity in detergent-free assay | AID 1476 | hit rate 2.3% among 200,000 | P25779 | Potency, µM, for the others: max response, negative = inhibition, most hits filed as inhibitors | purified cruzain, Z-FR-AMC fluorescence, no detergent;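 note: plate controls were enzyme without inhibitor for no effect and buffer without enzyme for full effect; nearly all actives have a fitted effect of over 40% in size; top concentration of the series not given in the record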
Target sequence (P25779 123-467 limits assumed): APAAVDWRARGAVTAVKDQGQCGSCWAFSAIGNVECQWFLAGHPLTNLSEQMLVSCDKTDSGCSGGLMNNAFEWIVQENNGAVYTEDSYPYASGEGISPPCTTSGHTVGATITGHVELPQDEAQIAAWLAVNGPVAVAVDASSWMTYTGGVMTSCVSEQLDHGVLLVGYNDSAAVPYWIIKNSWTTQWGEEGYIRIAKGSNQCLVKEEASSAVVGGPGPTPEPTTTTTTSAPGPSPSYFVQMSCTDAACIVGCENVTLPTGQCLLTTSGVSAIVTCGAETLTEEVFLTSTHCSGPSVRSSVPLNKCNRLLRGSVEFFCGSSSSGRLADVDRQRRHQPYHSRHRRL
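Detergent-free condition (0.00005% Triton X-100) in acetate buffer pH 5.5 with DTT. 1.5 nM enzyme and compound were pre-mixed 15 min, then 2 uM Z-FR-AMC substrate added; reaction progress from fluorescence change between first and third reads (60 s).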
2A StopGo: FMDV 2A StopGo reporter, luciferase signal. human cells with a luciferase reporter of 2A StopGo recoding; control for the full effect not named in the record. hit rate 1.2% among 410,000. Potency, µM (top dose mostly 57.9 µM), for inactives: at the highest dose signal change, negative = less light; active = well fitted falling curve with a large enough effect; inconclusive = small, poorly fitted or top-dose-only effect; inactive = no such curve, though single readings can be large or run the other way; tested in HEK293T cells; note: % is set by controls: 0 for no effect and ±100 for the full control effect; nearly all actives have a fitted effect of over 45% in size; luciferase light after 4 h
Cruzain Triton: cruzain (T. cruzi) inhibition with detergent; AID 1478; P25779; purified cruzain, Z-FR-AMC fluorescence, 0.01% Triton; Potency, µM, without a hit: max response, negative = inhibition, actives largely listed as inhibitors; hit rate 0.43% among 200,000;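 note: plate controls were neutral wells for no effect and buffer without enzyme for full effect; nearly all actives have a fitted effect of over 40% in size; top concentration of the series not given in the record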
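Cruzain (1.5 nM) preincubated 15 min at RT with compound in 100 mM sodium acetate pH 5.5, 5 mM DTT, 0.01% Triton X-100. Reaction started with 2 uM Z-FR-AMC; AMC fluorescence (ex 360/em 450 nm) change over 60 s gave rate.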
NS1 inh: blocks influenza NS1 protein function; AID 2326; hit rate 0.4% among 270,000; Potency, µM (top dose mostly 46.1 µM), for the others: top-dose activity, positive = more growth; S. cerevisiae slowed by influenza A NS1, growth recovery by OD600; active means well fitted rising curve with a large enough effect; inconclusive means small, poorly fitted or top-dose-only effect; inactive means no such curve, though single readings can be large or run the other way; note: nearly all actives have a fitted effect of over 50% in size
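S. cerevisiae expressing influenza A NS1, grown in glucose, washed, then diluted 1:100 into pH 6.0 -URA galactose medium with 23 nl compound. Growth recovery read as OD600; NS1-free strain serves as control.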
RE007 growth inh: less growth of the S. pombe RE007 Vpr strain; hit rate 0.21% among 360,000; S. pombe RE007 Vpr strain, BacTiter-Glo ATP luminescence, 24 h; control for the full effect not named in the record; Potency, µM (doses to about 92.2 µM), without a hit: at the highest dose activity change, negative = less growth; active = well fitted falling curve with a large enough effect; inconclusive = small, poorly fitted or top-dose-only effect; inactive = no such curve, though single readings can be large or run the other way;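 note: % is set by controls: 0 for no effect and ±100 for the full control effect; nearly all actives have a fitted effect of over 50% in size; the assay follows cell death caused by Vpr and the record does not say whether a fall means rescue or toxicity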
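Fission yeast strain RE007, carrying one chromosomally integrated HIV-1 vpr copy, was seeded at OD 0.01 in PMG+AL medium with 23 nL pinned compound. After 24 h at 30 °C and 99% humidity, viability was read by BacTiter-Glo luminescence.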
An asterisk follows results filed as active; ? = inconclusive; nt = not tested or not shown; & = joins results of further samples; [ ] = dose if it differs, or a comment. Unless noted, calls come from the whole dose curve; as a rule, active = well fitted curve in the direction sought with a large enough effect; inconclusive = small, poorly fitted or top-dose-only effect, or another doubt; inactive = no such curve, though single readings can be large; an effect the other way counts as inactive or inconclusive. Potency is the fitted concentration of half-maximal effect. Compounds as they come. Share with any hit: about 4.8%.

Sequence of screens: RE007 growth inh, Marburg entry inh, LASV entry inh, Cruzain Triton, NS1 inh, Cruzain inh noDet, 2A StopGo, SARS PLP yeast
1: CCC(=O)OCc1cc(=O)n2nc(C3CC3)sc2n1
 : nt, nt, 8%[46.1 µM], -3.5%, nt, -2%, -19%, nt
2: O=C(O)c1ccc(OCC(F)(F)F)nc1
 : -6%, 8%[46.1 µM], -1%[46.1 µM], nt, -5%, nt, 0%, 0%
3: CCCN1CCN(S(=O)(=O)c2ccc(-c3cc(C)no3)s2)CC1
 : -3%, nt, nt, nt, 8%, nt, -19%, 9%
4: Fc1cc2[nH]c(=S)[nH]c2c(Br)c1N1CCSCC1
 : 7%, nt, nt, nt, 9%, nt, -13%, -3%
5: O=C(CCSCCc1ccccn1)Nc1ccccc1C(F)(F)F
 : nt, nt, 6%[46.1 µM], -0.5%, nt, -1%, -4%, nt
6: COc1ccc(-c2cc(-c3ccccc3)n3ncnc3n2)cc1
 : -6%, ?, -23%, -17%, -10%, ?, ?, -9%
7: COc1cc(-c2nnc(COC(=O)CSCC(=O)Nc3cc(C)on3)o2)cc(OC)c1OC
 : 2%, ?, 2%, nt, nt, nt, -1%, 1%
8: N/C(=N\OC(=O)Oc1ccccc1)c1cccc([N+](=O)[O-])c1
 : 12%, 4%, 2%, -7.0%, 2%, 4%, -13%, 6%
9: CC1c2[nH]c3ccccc3c2C[C@H]2C(=O)N(CCCO)CC(=O)N12 (stereo partly drawn)
 : 1%, nt, nt, nt, 4%, nt, -5%, 1%
10: Cc1cc(C)nc(SCC(=O)OCC(=O)N(C)c2c(N)n(Cc3ccccc3)c(=O)[nH]c2=O)n1
 : 5%, 5%, ?, nt, 6%, nt, -13%, -3%
11: CCNC(=S)Nc1cc2oc3ccccc3c2cc1OC
 : ?, -17%[46.1 µM], -20%[46.1 µM], nt, -6%, nt, 2%, -4%
12: O=C(CCCOc1ccc(Cl)cc1Cl)NCCCn1ccnc1
 : -2%, 3%[46.1 µM], 25%[46.1 µM], nt, -2%, nt, -12%, 0%
13: CCC(C)NC(=O)CCC(=O)Nc1ccc2nc(N3CCOCC3)cc(C)c2c1 (stereo not drawn)
 : -27%, -5%, ?, -3.4%, -6%, -1%, 13%, ?
14: COC(=O)CCC(=O)OC1(C)C(=O)C=C2C=C(C3CC3)N(CCN3CCOCC3)C=C2C1=O (stereo not drawn)
 : -25%, nt, nt, nt, 3%, nt, -3%, 0%
15: O=C(CSc1ncccn1)NCCc1ccccc1
 : 1%, 14%, 18%, 1.3%, 1%, 3%, 26%, 0%
16: CC(=O)Nc1c2c(nn1-c1cccc(Cl)c1)CS(=O)(=O)C2
 : 2%, nt, nt, nt, -1%, nt, -7%, 12%
17: Cn1c(NCCc2ccccc2)cc(=O)n(C)c1=O
 : 7%, -8%, 15%, 6.8%, 2%, -3%, 4%, -9%
18: COc1cc(C(=O)Nc2ccccc2N2CCOCC2)ccc1OCc1c(C)noc1C
 : -1%, -6%, -2%, -4.7%, 0%, ?, -26%, 0%
19: Cn1nc(C(C)(C)C)c(NC(=O)c2sccc2Cl)c1C(C)(C)C
 : -15%, ?, 19%[46.1 µM], nt, 1%, nt, 4%, 0%
20: CCCc1cc(N2CCCC(C(=O)Nc3ccc(OC)cc3OC)C2)n2ncnc2n1 (stereo not drawn)
 : -11%, ?, -23%, 2.1%, -1%, 17%, ?, 9%
21: Cc1cc(=O)n(-c2ccc3ccccc3n2)[nH]1
 : -6%, -1%, ?, -5.5%, -56%, 6%, 26%, ?
22: COc1cccc(-c2nnn(CC(=O)O)n2)c1
 : 17%, 4%, ?, 0.7%, -2%, -5%, 14%, 2%
23: O=C(Nc1ccc(C(=O)N2CCCC2)cc1)c1ccc2c(c1)OCO2
 : ?, 28%, -1%, -1.7%, -1%, 0%, 45%[activator], -6%
24: O=C(CN1CCSc2ccccc21)N1CCCCC1
 : nt, nt, 8%[46.1 µM], -1.9%, nt, 8%, -5%, nt
25: COc1ccc(C(=O)NNC(=O)c2ccc3ccccc3n2)cc1
 : ?, ?, ?, nt, nt, nt, -21%, 0%
26: CC1CCC(NC(=O)CCNC(=O)c2ccccc2)CC1 (stereo not drawn)
 : -1%, nt, nt, nt, 1%, nt, 8%, -3%
27: Cc1onc(C(=O)NC(C)c2ccccc2)c1[N+](=O)[O-] (stereo not drawn)
 : -11%, -1%[46.1 µM], 0%[46.1 µM], nt, nt, nt, -9%, 0%
28: COC(=O)c1cc2c(cc1[N+](=O)[O-])OCO2
 : 11%, -4%, 18%, nt, -1%, nt, 0%, 4%
29: Cc1sc2nc(CSc3ccccc3)nc(N3CCOCC3)c2c1C
 : 10%, ?, 3%, -2.5%, -8%, 0%, ?, -24%
30: Cc1ccc([N+](=O)[O-])cc1NC(=O)C(C)N1CCCCC1 (stereo not drawn)
 : -19%, 4%[46.1 µM], 4%[46.1 µM], nt, nt, nt, -13%, 2%
31: Cc1cc(C)c2nc(SCC(=O)Nc3cc(C)on3)c(C)cc2c1
 : 2%, ?, ?, nt, 14%, nt, -21%, -1%
32: COc1ccccc1N1CCN(c2c3c(nc4nncn24)CCC3)CC1
 : nt, -13%[46.1 µM], 4%[46.1 µM], 0.0%, nt, -1%, -9%, nt
33: CC1(C)OC(c2ccccc2)=C/C(=C/C=N/NC(=O)c2ccncc2)O1
 : 35%, ?, ?, nt, -1%, nt, 0%, -2%
34: N#Cc1nc(-c2ccc(F)cc2)oc1NCCN1CCOCC1
 : 3%, nt, nt, -3.8%, 5%, -3%, -1%, 0%
35: CCOc1ccc(Br)cc1CNCCN1CCOCC1
 : -15%, ?, 1%, -3.0%, 2%, -4%, -20%, -6%
36: CC1(C)CCC(=O)N2CC[C@H]3C[C@H](OC(=O)Nc4ccc5c(c4)OCO5)C[C@@H]1[C@H]32
 : 7%, nt, nt, nt, -5%, nt, 65%[activator], -8%
37: COC(=O)c1sccc1NC(=O)c1ccc(Cl)cc1
 : -9%, nt, nt, nt, -1%, nt, -8%, 1%
38: Cc1ccc(NC(=O)CN(C)C(=O)C(C)OC(=O)c2ccccc2NCCO)cc1 (stereo not drawn)
 : 1%, 0%, 4%, nt, nt, nt, -20%, -1%
39: Cc1ccccc1NC(=O)C(C)Sc1nnc(-c2ccncc2)n1CC1CCCO1 (stereo not drawn)
 : 5%, ?, 0%[46.1 µM], nt, -10%, nt, -8%, 1%
40: CCOc1ccc(CNCCNC(=O)c2nonc2N)cc1
 : -6%, ?, 13%[46.1 µM], 0.0%, nt, 12%, -6%&-1%, 5%
41: CCCCOc1ccccc1C(=O)NCC(=O)O
 : 10%, -2%, -10%, 1.2%, 0%, -1%, nt, 0%
42: COc1ccc(OC)c(-c2nnc(SCC(=O)NC3CCCCC3)o2)c1
 : -11%, nt, nt, 2.7%, -6%, 0%, -24%, -7%
43: O=C(/C=C/c1cccs1)c1cc(Cl)ccc1OC(=O)N1CCOCC1
 : -6%, ?, ?, -7.3%, -34%, 2%, ?, -15%
44: Cc1nc(NCCO)c2nnn(Cc3ccccc3F)c2n1
 : 10%, -3%[46.1 µM], 2%, 1.6%, 4%, 1%, -13%, -4%
45: COc1cccc(/C=N/Nc2snc(SC)c2C#N)c1O
 : -2%, ?, ?, -8.7%, -18%, -12%, ?, -11%
46: O=C(O)c1ccc(S(=O)(=O)Cc2ccccc2)cc1
 : 12%, 19%, 6%, 4.6%, 4%, 7%, -11%, -1%
47: CC(=O)c1ccc(-n2c(SCC(=O)c3c[nH]c4ccccc34)nc3ccccc3c2=O)cc1
 : 6%, 3%, nt, -1.6%, ?, -27%, 0%, 19%
48: NNC(=O)CNC(c1ccccc1)c1cc(Br)ccc1NC(=O)CCN1CCOCC1 (stereo not drawn)
 : 12%, ?, -3%, 4.8%, 10µM*, 2%, -9%, 2%
49: Cc1cc(C(=O)NCCc2ccc(Cl)cc2)n(-c2ccccc2)n1
 : -4%, -27%[46.1 µM], -5%[46.1 µM], nt, -3%, nt, -19%, -3%
50: COC(=O)C1(O)CC(C(C)C)=NN1C(=O)c1ccccc1 (stereo not drawn)
 : -3%, ?, 25%, 1.7%, -5%, 0%, -23%, -12%
51: COc1ccc(-c2oc3cccnc3c2-c2ccc(OC)nc2)cc1
 : 5%, nt, nt, nt, -58%, nt, ?, 1%
52: Cc1ccc(C(=O)Nc2ccccc2SCC2CSc3nc4ccccc4c(=O)n32)cc1 (stereo not drawn)
 : 9%, 3.2µM*, 7.1µM*, 0.8%, -5%, 0%, -13%, -25%
53: CC(=O)c1c(O)cc(C)n(-c2ccc(F)cc2)c1=O
 : 3%, nt, nt, nt, -3%, nt, 12%, 2%
54: O=C(Nc1ccc(C(F)(F)F)cc1)C1CCCN1S(=O)(=O)c1cccc2cccnc12 (stereo not drawn)
 : -11%, ?, ?, -3.3%, -52%, 10%, -28%, -4%
55: COC(=O)CCCCCCCCC(=O)Nc1nc2ccccc2s1
 : 5%, 13%, 1%, 3.3%, 9%, -25%, 18%, 3%
56: CSc1ccccc1C(=O)NCc1ccc2c(c1)OCO2
 : -13%, 17%, 0%, -1.9%, -4%, -6%, 11%, 2%
57: Cc1cccc(C)c1NC(=O)CCn1cnc2ccccc2c1=O
 : 2%, -4%, -3%, nt, 2%, nt, -11%, 0%

One compound at a time, from the list above.
Cc1ccccc1NC(=O)C(C)Sc1nnc(-c2ccncc2)n1CC1CCCO1 (stereo not drawn) as listed: RE007 growth inh = 5%; Marburg entry inh = ?; LASV entry inh = 0%[46.1 µM]; Cruzain Triton = nt; NS1 inh = -10%; Cruzain inh noDet = nt; 2A StopGo = -8%; SARS PLP yeast = 1%
COC(=O)CCCCCCCCC(=O)Nc1nc2ccccc2s1 as listed: RE007 growth inh = 5%; Marburg entry inh = 13%; LASV entry inh = 1%; Cruzain Triton = 3.3%; NS1 inh = 9%; Cruzain inh noDet = -25%; 2A StopGo = 18%; SARS PLP yeast = 3%
